Bioassay records (PubChem)
HIV TAR-Tat: HIV-1 TAR-Tat binding disruption; hit rate 0.6% among 100,000; z-score (no concentration beside the values); AID 1259389; HIV-1 TAR RNA, Tat peptide displacement FRET; active compounds read high;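 also: score is relative to mean and SD of negative controls; some compounds called inactive have numbers as strong as hits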
CDC25B-CDK2 inh: human CDC25B-CDK2/CyclinA binding inhibition | P30305+P24941 | HTRF CDC25B-CDK2/CyclinA binding, anti-His/anti-Flag; active compounds read high | z-score (test concentration not listed) | hit rate 0.72% among 94,000 | AID 1259370;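 also: score is relative to mean and SD of negative controls; strong numbers were not always called active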
Numbers without * were called inactive; . = not tested or not shown.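 The calls were made as follows: active = z-score from 3 up in half or more of its runs; inactive = the rest.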 Not a hit list. About 0.97% of those tested had a hit in this group.

SMILES	HIV TAR-Tat	CDC25B-CDK2 inh
COc1cc(NC(=O)Cn2nc3c4sccc4ncn3c2=O)cc(OC)c1	0.72	.
NC(=O)c1nn2c(C(F)(F)F)cc(-c3ccc(Br)cc3)nc2c1Cl	2.4	.
CS(=O)(=O)Nc1cccc(C2=NN(C(=O)c3ccc(Cl)cc3)C(c3ccco3)C2)c1 (stereo not drawn)	.	-0.43
CC12CCC(CC1=NC(=O)c1ccccc1)C2(C)C (stereo not drawn)	.	-1.6
COc1cccc(-c2nc(C(N)=O)c3[nH]c(=O)n(CC4CCCO4)c3n2)c1 (stereo not drawn)	17	.
CN1CCN(CCCNC(=O)c2cc3c(s2)-c2ccsc2CC3)CC1	0.36	.
Cc1ccc(C2CC(c3cccc(NS(C)(=O)=O)c3)=NN2C(=O)C(C)C)cc1 (stereo not drawn)	.	0.39
COCCCNc1nc2c(-c3ccccc3)nnn2c2ccccc12	1.1	-1.1
O=C(N1CCN(c2ccccc2)CC1)N1c2ccccc2Sc2ccccc21	-0.25	0.64
Cc1ccc(NS(=O)(=O)c2cc3c(cc2C)N(C)CCO3)nc1	1.4	.
Cc1nn(C)c2c1c(C(F)(F)F)cc(=O)n2CC(=O)NCCC1=CCCCC1	-1	.
O=C(CSc1ncc(S(=O)(=O)c2cccc(Cl)c2)c(=O)[nH]1)Nc1ccccc1	-0.24	-1.4
O=C1N[C@H]2OC(C(O)CO)[C@H](O)[C@H]2O1 (stereo partly drawn)	.	-1.1
CC(C)C1c2cccn2CCN1C(=O)Nc1ccccc1Br (stereo not drawn)	1.4	.
O=C(O)CCc1nnc2ccc(Cl)nn12	0.2	-0.88
O=C(NCCN1CCCc2ccccc21)C1CCN(c2ncnc3c2nc2n3CCCCC2)CC1	1.1	.
COC(=O)C1=C(C(=O)c2ccc(C)cc2)C(c2ccc(OC)cc2OC)n2nnnc2N1 (stereo not drawn)	0.35	-1.7
O=C(O)CN1C(=O)CC(Cc2ccc(Br)cc2)C1=O (stereo not drawn)	0.07	0.4
CC(C)CCNC(=O)CCC(=O)N1CC(C)Sc2ccccc21 (stereo not drawn)	1.5	.
COc1cccc(Nc2nc(N)nc(CN3CCN(c4ccccc4OC)CC3)n2)c1	2	.
COC(=O)c1cnn(-c2ccccc2)c1-n1cccc1	1.8	.
CN1C(=O)C2C(C1=O)N1C(c3ccccc3)C3C(=O)N(C)C(=O)C3N1C2c1ccccc1 (stereo not drawn)	.	-0.84
CCCCN(C)S(=O)(=O)c1cccc2c(N)cccc12	.	-2.2
O=S(=O)(c1ccc(-c2cnc(C3CC3)o2)cc1)N1CC=C(c2ccccc2)CC1	1.2	.
CCCCCNC(=O)c1ccc(C)c(NC2=NC3CS(=O)(=O)CC3S2)c1 (stereo not drawn)	0.62	-0.89
O=C(CSc1ccc(-c2cccs2)nn1)Nc1cccc(Cl)c1	2.6	.
FC(F)(F)C(=C(N=C(Cl)N1CCOCC1)C(F)(F)C(F)(F)F)C(F)(F)F	.	0.2
Cc1ccc(-c2noc(CN(C(=O)c3cc(C)ccc3C)C(C)C)n2)cc1	.	-0.01
COc1ccc(OC)c(C2C(C#N)=C(N)OC3=C2C(=O)CCC3)c1 (stereo not drawn)	.	0.55
Cc1ccc(C)c(NS(=O)(=O)c2ccc(N3CCCCS3(=O)=O)cc2)c1	0.94	.
CN(Cc1ccccc1)C(=O)CCS(=O)(=O)c1ccc2c(c1)NC(=O)CS2	1.7	.
O=C(NCc1ccccn1)NC1COc2ccccc2C1 (stereo not drawn)	0.4	.
CC(C)Nc1nc(NCCCO)nc2c1cnn2C	2.2	.
C=CCN1C(=O)/C(=C\c2ccc(OCc3cccc4ccccc34)c(OC)c2)SC1=S	.	-2.7
Cc1ccc(NS(=O)(=O)c2ccc3c(c2)S(=O)(=O)N=CN3)c(C)c1	0.39	.
O=C(Nc1cccc(Cl)c1)c1noc2c1CCc1sccc1-2	-1.8	.
COc1cc(/C=C2\Sc3ccccc3C2=O)ccc1OCc1ccc(Cl)cc1	.	-4.1
Cc1noc(C)c1CCN1CNc2c(c(=O)n(C)c(=O)n2C)C1	1.2	-1.9
O=C(NCCc1nnc2ccc(NCC3CCCO3)nn12)c1ccccc1 (stereo not drawn)	-0.56	.
Cc1cc2n(n1)CCCN2C(=O)Nc1cc(F)ccc1F	1.7	.
O=[N+]([O-])c1ccc(CSc2ccccc2)cc1	.	-0.11
O=C1CC(C(=O)Nc2cccc(Cl)c2)n2ncnc2N1 (stereo not drawn)	-1.2	0.33
Cc1nn(-c2nncc(-c3ccc(F)cc3)n2)c2c1C(c1ccc(Br)cc1)CC(=O)N2 (stereo not drawn)	1.8	2.2
COc1ccc(Nc2nc(-c3cccnc3)cs2)cc1	0.26	-2.9
COc1nc(N(C)C)nc(-n2cnc(SCC(N)=O)n2)n1	1.6	-1.6
C1=C(c2cccnc2)Nc2nc3ccccc3n2C1c1cccs1 (stereo not drawn)	.	-3.4
Nc1ncnc2c1ncn2[C@@H]1O[C@H](CSCC[C@H](N)C(=O)O)[C@@H](O)[C@H]1O	1	.
O=C(CN1c2ccccc2S(=O)(=O)c2ccccc21)N1CCN(c2ccccc2)CC1	0.38	.
O=C(Cc1cccs1)Nc1c(C(=O)N2CCN(c3ccccc3)CC2)oc2ccccc12	-7.3	.
O=C1N/C(=N\N=C\c2ccco2)SC1Cc1ccc(Cl)c(Cl)c1 (stereo not drawn)	.	-0.71
O=C(Cn1c(=S)[nH]c2ncccc2c1=O)NCc1ccco1	.	-1.2
O=C1CCCc2cc(S(=O)(=O)NCCCN3CCOCC3)ccc2N1	1.5	.
O=C(Nc1ccc(F)c(Cl)c1)c1cc2c(s1)-c1ccccc1OC2	0.7	0.02
CC(C)C(=O)Nc1nnc(S(=O)(=O)N2CCCc3ccccc32)s1	0.2	-0.55
O=C(C1CC(=O)N(c2cccc(-c3noc(C4CCC4)n3)c2)C1)N1CCN(c2ccccc2)CC1 (stereo not drawn)	1.1	.
COC(=O)C1C2C=CC3(CN(c4ccc(Cl)cc4)C(=O)C13)O2 (stereo not drawn)	1.9	1.1
COc1cc(C2C3=C(Nc4c2c(=O)n(C)c(=O)n4C)c2ccccc2C3=O)ccc1OC(C)=O (stereo not drawn)	1.3	-1.7
Oc1c(C(c2ccc(F)cc2)N2CCCC2)ccc2cccnc12 (stereo not drawn)	1.3	.
Cc1c(C(=O)NCCCN2CCCC2)sc2nc3n(c(=O)c12)CCC3	2.4	.
CC(C)NC(=O)CSc1nc(-c2ccccc2F)nc2cc(=O)[nH]n12	0.08	.

Additional structures:
SMILES	HIV TAR-Tat	CDC25B-CDK2 inh
CSc1cccc(NC(=O)Cn2ncn3c(cc4ccccc43)c2=O)c1	-1.4	-0.59
CN(C)c1nc(N)c([N+](=O)[O-])c(N2CCC(Cc3ccccc3)CC2)n1	0.29	.
CCOC(=O)C1=C(C)NC2=C(C(=O)C(C(=O)OC)C(C)C2)C1c1ccc(OC)c(OC)c1 (stereo not drawn)	0.17	-1.9
Cc1c(C)c(C)c(CSCC(=O)NNC(=S)Nc2ccccc2Cl)c(C)c1C	.	-0.22
Cc1ccc(-c2c(C(F)(F)F)nn3c(NCC4CCCO4)cc(C)nc23)cc1 (stereo not drawn)	-1.5	-0.65
CC1CCCCN1CCNC(=O)Cn1ncn2nc(-c3cccs3)cc2c1=O (stereo not drawn)	-0.01	-1.7
COc1ccc(Cl)cc1N(C)C(=O)Nc1cn(C)c(=O)c2ccccc12	-0.84	.
O=C1CCCC2=C1C(c1ccco1)N(Cc1cccc(F)c1)c1ccccc1N2 (stereo not drawn)	-10	.
CCc1ccc(C(=O)c2cnc3cc4c(cc3c2N2CCCC2)OCO4)cc1	-0.89	-0.75
Cn1c(=O)c2c(ncn2Cc2ccc(F)cc2)n(C)c1=O	2.9	-2.2
CCn1nc(C)c(CNC(=O)NCCC(C)C)c1C	-1.2	.
O=C(Cc1cccc2ccccc12)OCC(=O)c1ccc(Br)cc1	0.91	-2.1
NC(=O)c1nn(-c2ccccc2)c(=O)cc1O	.	-0.6
O=C(CCCn1ncn2c(cc3occc32)c1=O)NCc1ccccc1	2.3	-1.2
CC1CN(C(=O)N2CCC(C(=O)N3CCN(c4ccccn4)CC3)CC2)c2cc(Cl)ccc2O1 (stereo not drawn)	0.99	.
Nc1nc(-c2ccccc2)nn1C(=O)c1ccccc1F	0.17	1.1
N#CC1=C2N=C(N)c3ccccc3N2C2=C(C(=O)CCC2)C1c1ccc(F)cc1 (stereo not drawn)	-1.7	-0.73
Cc1ccc(-c2nnc3sc(-c4cccnc4)nn23)cc1	1.4	0.41
C[C@@H]1CN(CCCn2c3ccccc3c3ccccc32)C[C@H](C)N1	1.7	.
COc1ccc(CNCc2ccccc2OC)cc1Br	0.98	-3.1
CN1CCN(c2ccccc2NC(=O)c2cc3c(s2)-c2ccccc2S(=O)(=O)C3)CC1	0.01	-1.2
COc1cc(C)c(Cc2cnc(N)nc2N)cc1OC	-0.44	.
Cn1c(-c2ccccc2)cccc1=O	1.6	-0.42
COc1ccc(OC)c(NS(=O)(=O)c2ccc(-c3cnc(C4CC4)o3)cc2)c1	1.4	.
Cc1cccc(C)c1OCC(O)Cn1cnc2ccccc21 (stereo not drawn)	-0.35	-1.3
O=S1(=O)N=CN(CCOc2ccc(F)cc2)c2ccccc21	-0.02	.
Cc1ccccc1-c1nc2c3c(C)c(C)n(-c4cccnc4)c3ncn2n1	0.15	-0.18
Cc1ccc(-c2noc(-c3cc(C(C)C)[nH]n3)n2)cc1	-1.1	.
Cc1ccccc1-c1nn2c(-c3ccncc3)nnc2s1	2.6	-1.1
O=C(Cn1ncn2nc3c(c2c1=O)CCCC3)Nc1cccc(F)c1	1.6	.
O=C(COc1ccc(Br)cc1)Nc1nc2c(s1)CCCC2	2.5	-1.2
O=C(O)CCC(=O)Nc1ccc2c(c1)OCCCO2	.	-1.6
O=C(Nc1ccccc1Cl)N1CCC(N2CCN(Cc3ccccn3)C(=O)C2=O)CC1	1	.
O=C(NCc1ccc2c(c1)OCO2)C(=O)c1c[nH]c2ccccc12	-0.39	0.64
CCOc1ccc(C2c3c(oc4ccccc4c3=O)C(=O)N2c2nnc(C)s2)cc1OCC (stereo not drawn)	0.8	-0.48
CCOc1ccc(/C(O)=C2/C(=O)C(=O)N(CC3CCCO3)C23C(=O)N(CC)c2ccccc23)cc1 (stereo not drawn)	2.9	-0.2
Cc1ccc2[nH]c3c(=O)n(CCCN4CCCC4=O)cnc3c2c1	1.8	-1.6
COC(=O)c1c(C)oc(C)c1S(=O)(=O)N1CCCc2ccccc21	.	-2
CC1(C)CCc2cc(C3=C(O)/C(=C/c4ccc5c(c4)CC(O)C(C)(C)O5)OC3=O)c(O)cc2O1 (stereo not drawn)	1.3	.
c1ccc2c(c1)oc1c(N3CCCCC3)ncnc12	2.1	.
COc1ccccc1OCCN1CCN(C)CC1	1.1	-0.48
Cc1nc2sccn2c(=O)c1S(=O)(=O)Nc1cccc(F)c1	0.53	-0.83
Cc1ccc(CNCCCSc2nnnn2C)s1	1.1	0.94
C=CCOc1ccc2oc(-c3ccc(OC)cc3)cc(=O)c2c1	-0.43	-1.1
CCC(=O)Nc1nc2cc(NC(=O)c3cnccn3)ccc2s1	1.5	.
COC(=O)c1sccc1S(=O)(=O)Nc1ccc(OC)c(Cl)c1	0.65	.
Cc1nn(C)c(C)c1S(=O)(=O)N(Cc1cc(CN2CCOCC2)cs1)c1ccc(F)cc1	-0.36	.
CCSC1=N/C(=C\c2cc3c(cc2Br)OCO3)C(=O)S1	0	0.21
Cc1cc(Cl)ccc1NS(=O)(=O)c1ccc2c(c1)NCC(C)S2 (stereo not drawn)	1.5	.
O=C(CC1CCCC1)Nc1ccc2nc(NS(=O)(=O)c3ccccc3)sc2c1	-0.24	.
Cn1nc(C(=O)NCCN2CCOCC2)c2c1-c1ccccc1CC2	1.4	.
O=C(Cn1c(CN2CCCCC2)nc2ccccc21)N1CCCCC1	2.2	-1.2
COc1c(O)cccc1O	1.1	.
Cc1ccc2oc3c(c(=O)c2c1)C1(C(=O)N(C)c2ccccc21)N(CCO)C3=O (stereo not drawn)	1.5	-2.3
O=C(CN1C(=O)c2ccccc2S1(=O)=O)Nc1ccccc1O	0.18	-0.31
Cc1ccc(OCCCn2c(C3CCCO3)nc3ccccc32)cc1 (stereo not drawn)	0.49	0.1
COC(=O)c1ccc(Cl)c2c1C1C=CCC1C(c1cccnc1)N2 (stereo not drawn)	3.1	-1
